Bioassay records from PubChem BioAssay.
hNpr1 antagonist = antagonists of human natriuretic peptide receptor Npr1; Potency, µM (series often up to 46.3 µM), for the others: at the top dose activity change, negative = inhibition, actives largely listed as inhibitors; actives 1.6% (n = 76,000); P16066; HEK293 hNpr1 GloSensor cGMP, ANP-stimulated luminescence; active = well fitted inhibition curve with a large enough effect; inconclusive = small, poorly fitted or top-dose-only effect; inactive = no such curve, though single readings can be large or run the other way;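 also: nearly all actives have a fitted effect of over 60% in size; nearly all hits also lower the signal before the agonist is added; a reference antagonist and vehicle were the controls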
Target sequence (P16066 whole entry, looked up): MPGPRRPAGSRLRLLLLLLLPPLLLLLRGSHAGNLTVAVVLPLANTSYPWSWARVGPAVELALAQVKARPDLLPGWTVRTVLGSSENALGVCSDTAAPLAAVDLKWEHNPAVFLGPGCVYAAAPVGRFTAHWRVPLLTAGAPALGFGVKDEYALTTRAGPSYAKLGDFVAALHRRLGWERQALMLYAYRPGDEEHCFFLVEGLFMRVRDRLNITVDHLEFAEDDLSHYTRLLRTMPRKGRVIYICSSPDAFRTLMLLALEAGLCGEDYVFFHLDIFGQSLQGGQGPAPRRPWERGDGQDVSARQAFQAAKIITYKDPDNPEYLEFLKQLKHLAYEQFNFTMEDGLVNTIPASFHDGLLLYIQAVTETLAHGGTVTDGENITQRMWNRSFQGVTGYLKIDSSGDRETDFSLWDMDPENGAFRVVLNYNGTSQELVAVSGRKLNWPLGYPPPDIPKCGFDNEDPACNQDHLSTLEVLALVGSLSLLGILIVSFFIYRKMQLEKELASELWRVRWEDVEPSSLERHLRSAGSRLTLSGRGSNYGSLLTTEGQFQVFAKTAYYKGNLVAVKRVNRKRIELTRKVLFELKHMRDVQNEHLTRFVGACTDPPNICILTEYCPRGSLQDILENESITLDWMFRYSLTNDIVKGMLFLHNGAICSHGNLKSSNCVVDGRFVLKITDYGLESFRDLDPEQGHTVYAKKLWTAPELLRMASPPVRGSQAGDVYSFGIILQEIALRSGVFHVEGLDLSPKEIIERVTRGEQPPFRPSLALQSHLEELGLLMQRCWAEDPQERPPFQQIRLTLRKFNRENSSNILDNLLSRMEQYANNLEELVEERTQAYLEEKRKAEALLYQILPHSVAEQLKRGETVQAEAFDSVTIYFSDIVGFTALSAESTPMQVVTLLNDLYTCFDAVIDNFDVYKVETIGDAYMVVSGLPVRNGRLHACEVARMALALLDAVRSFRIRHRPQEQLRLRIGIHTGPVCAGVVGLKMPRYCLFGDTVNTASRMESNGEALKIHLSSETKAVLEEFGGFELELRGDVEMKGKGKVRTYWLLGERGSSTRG
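Compound pre-incubated 30 min at room temperature on GloSensor-loaded HEK293 cells stably carrying hNpr1 and the pGS-40F cGMP biosensor. Stimulation uses hNppA at 0.1 nM final; luminescence is taken at baseline and 20 min post-agonist.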
Numbers without * were called inactive; ? = inconclusive; [ ] = remark or other dose. % is scaled to controls: 0 for no effect and ±100 for the full control effect; potency is read from the fitted curve at half-maximal effect. A portion of the library; rates above refer to the full screens.

The opening 2 records, ahead of the listing:
SMILES	hNpr1 antagonist
Cc1cc(C)cc(NC(=O)Cn2c(N3CCC(C)CC3)nc(C)cc2=O)c1	?
O=C(NCCN1CCCCC1)C1(CCO)CCN(Cc2ccccc2)C1 (configuration not stated)	4.5%

All compounds of this part (from the top)
SMILES	hNpr1 antagonist
Cc1cc(C)cc(NC(=O)Cn2c(N3CCC(C)CC3)nc(C)cc2=O)c1	?
O=C(NCCN1CCCCC1)C1(CCO)CCN(Cc2ccccc2)C1 (configuration not stated)	4.5%
O=C(O)[C@@H]1CN(Cc2ccccc2)C[C@@H]1C(=O)N1CCN(c2ccccn2)CC1	-1.4%
Cc1ccc(C)c(NC(=O)N2CCC(OC3CCN(S(C)(=O)=O)CC3)CC2)c1	-12.7%
COCCNC(=O)Cc1ccc(N(Cc2ccccc2)C(=O)c2ccco2)cc1	7.2%
CN1CCOc2c(C(=O)NCCC(N)=O)cc(-c3ccccc3)cc21	1.3%[70.6 µM]
COCCn1cnc2cccnc21	0.0%[70.6 µM]
O=C(NCC1CCOCC1)Nc1ccc(F)cc1	-3.3%
Cc1cccc(NC(=O)N2CCc3nnc(C4CC4)n3CC2)c1	-1.0%
c1cncc(-c2ccnc3nc(CCC4CCCC4)nn23)c1	5.5%

Next part; the last 2 above are carried over.
SMILES	hNpr1 antagonist
Cc1cccc(NC(=O)N2CCc3nnc(C4CC4)n3CC2)c1	-1.0%
c1cncc(-c2ccnc3nc(CCC4CCCC4)nn23)c1	5.5%
CCCCNC(=O)[C@H]1CCC[C@H]1NC(=O)c1cnc(C)cn1	3.6%
O=C(c1ccccc1)N1CC[C@H]2COC(=O)N2c2cc(F)ccc2C1	2.0%[70.6 µM]
CC(C)c1noc(-c2cn(C3CCN(C(=O)c4ccc(F)cc4Cl)CC3)nn2)n1	0.0%
Cn1ncc(N2CCCC(CC(=O)NCc3cccc(F)c3)C2)cc1=O (configuration not stated)	2.5%
Cc1cc(F)ccc1-c1[nH]nc2ncc(-c3cnn(C)c3)nc12	-2.1%[70.6 µM]
COCCn1ncc(N2CCC(NC(=O)c3ccc(C)cc3C)CC2)cc1=O	-1.6%
O=C(c1cncc(Br)c1)N1CCC(c2nc(C3CCOCC3)no2)CC1	19.8%
CC1CCCN1c1ncnc2c1CN(c1ccccc1F)C(=O)CN2C (configuration not stated)	1.6%
CCC(=O)N(C1CCOCC1)C1CCN(S(=O)(=O)c2ccc(F)cc2F)CC1	-1.8%
COc1ccc(OC)c(-c2nc3c(C)cccc3cc2CN2CCN(C)CC2)c1	2.7%

Four of these compounds in a different format.
hNpr1 antagonist | smiles
2.5% | Cn1ncc(N2CCCC(CC(=O)NCc3cccc(F)c3)C2)cc1=O (configuration not stated)
-1.8% | CCC(=O)N(C1CCOCC1)C1CCN(S(=O)(=O)c2ccc(F)cc2F)CC1
19.8% | O=C(c1cncc(Br)c1)N1CCC(c2nc(C3CCOCC3)no2)CC1
0.0% | CC(C)c1noc(-c2cn(C3CCN(C(=O)c4ccc(F)cc4Cl)CC3)nn2)n1

(listing goes on)
SMILES	hNpr1 antagonist
COc1ccc(CNC(=O)N2CCCC(Cc3nncn3C(C)C)C2)cc1 (configuration not stated)	-7.9%
Cc1cccc(NC(=O)N2CCC(CC(=O)NC3CC3)C2)c1 (configuration not stated)	1.0%
COc1ccc(NC(=O)C2CN(S(=O)(=O)c3cccnc3)CC23CCCCC3)cc1 (configuration not stated)	3.0%
CCOc1cc(CN2CCOc3ccc(C(=O)NCc4ccccc4F)cc3C2)ccc1O	-11.5%
COc1cccc2c1OCCCN(C(=O)CC1COCCN1)C2 (configuration not stated)	1.5%
Cc1cc(C(=O)NC[C@@H]2OC[C@@]3(C)[C@H]4CC[C@@H](O)[C@@H](CC(=O)N5CCCC5)[C@]4(C)CC[C@H]3O2)no1	-1.0%
COc1ccccc1CCC(=O)NC1CCc2nn(CC3CC3)c(=O)n2CC1 (configuration not stated)	1.7%
O=C(NC1CCN(c2nc3ncccc3o2)CC1)c1ccc(Cl)nc1	10.6%
Cc1noc(-c2cn(C3CCN(C(=O)c4cccc(Br)c4)C3)nn2)n1 (configuration not stated)	-9.4%
COCc1nc(C2CCCN(C(=O)NCC(C)C)C2)no1 (configuration not stated)	0.0%
COCc1c(C(=O)N[C@H](c2ccc(OC)nc2)C2CC(O)C2)noc1C (some centres not stated)	1.6%
O=C(CCc1ccccc1)N1CCCC(n2cc(-c3nc(-c4ccccc4)no3)nn2)C1 (configuration not stated)	?
COc1cccc(C(=O)NC2CCN(c3nc4ncccc4o3)CC2)c1	3.3%
CC(=O)N1CCC(C(=O)N2CCCN(c3cc(-c4ccc(Cl)cc4)[nH]n3)CC2)CC1	-3.3%
C=CCNC(=O)[C@@H]1CCCN1[C@@H](C(=O)NC)c1ccccc1OC	0.5%[70.6 µM]
Cc1nn(C)cc1NC(=O)CN1CCC(=O)N(CC2CC2)C(C(C)C)C1 (configuration not stated)	7.7%
COCC1CN(C)CC12CCN(C(=O)c1cc3ccccc3[nH]1)CC2 (configuration not stated)	-17.9%
Cn1nc2n(c1=O)CCN(S(=O)(=O)c1ccc3c(c1)OCCO3)CC2	1.7%
COc1ccc(-c2[nH]nc3ncc(-c4cccnc4)nc23)c(C)c1	2.1%[70.6 µM]
COc1ccc(C(=O)N[C@H]2C[C@@H](Cc3cc(CN4CCOCC4)on3)C2(C)C)cc1	0.7%[70.6 µM]
COc1ccc(-c2cc(N3CCCC(NC(=O)c4ccc(F)cc4Cl)C3)n[nH]2)cc1 (configuration not stated)	-20.5%
COc1ccc(C(=O)N2C(C(=O)N3CCCC3)COC23CCN(C(=O)CC(C)(C)C)CC3)cc1 (configuration not stated)	1.4%
Brc1cccc(-c2noc(-c3nc(-c4ccncc4)no3)n2)c1	0.2%
COc1ccc(NC(=O)c2ccc3c(c2)N(C(=O)c2ccc(F)cc2)CC3)cc1OC	-5.1%
COc1cccc(CNC(=O)[C@@H]2C[C@@H](O)CN2C2CCN(C(=O)c3ccc(C)c(F)c3)CC2)c1	5.7%
COc1ccccc1CC(=O)N1C[C@H](c2nc(-c3ccncc3)no2)[C@@H](C)C1	-24.1%
O=C(c1ccccc1C(F)(F)F)N1CCC2(CC1)CC(O)CCO2 (configuration not stated)	-0.2%
Nc1cnc(-c2cccnc2)nc1	-0.2%
CCNC(=O)O[C@@H]1CO[C@H]2[C@@H]1OC[C@@H]2NS(=O)(=O)c1ccc2ccccc2c1	2.7%[70.6 µM]
Cc1cn2nc(C(=O)Nc3ccc4c(c3)OCO4)cc2c(N2CCCC2)n1	-17.3%
CCn1ccnc1CN1CCCC12CCN(c1ccc(C(F)(F)F)cn1)CC2	-11.1%
Cc1ccc(C)c(OCC(=O)c2ccc3c(c2)N(CCCC(=O)NCC2CCCO2)C(=O)CO3)c1 (configuration not stated)	-1.7%
COc1ccc(-c2cc(N3CCCC(NC(=O)c4ccc(N(C)C)cc4)C3)n[nH]2)cc1 (configuration not stated)	-23.8%
CC(C)(C)c1[nH]nc2c1C(c1ccnc3ccccc13)CC(=O)N2 (configuration not stated)	-4.9%
CC(=O)Nc1ccc(C(O)[C@H]2COCC(=O)N2Cc2ccccc2F)cc1 (some centres not stated)	-0.4%[70.6 µM]
CCOCCn1cnc(-c2ccccc2)c1-c1cccc(C#N)c1	-8.5%
Cc1noc(C2CCCCN2C(=O)c2ccc(-c3ccccc3Cl)o2)n1 (configuration not stated)	-11.6%
O=C(Cc1cccc(Cl)c1)N1CCn2c(nn(-c3ccc(F)cc3)c2=O)C1	-19.2%
O=C(CN1C(=O)NC(c2ccccc2Cl)C2=C1COC2=O)Nc1ccc(F)c(Cl)c1 (configuration not stated)	-26.6%
CC(C)=CCN1CC2(CCN(S(=O)(=O)c3cccs3)CC2)CC1=O	9.0%
CN(C)c1ccc(NC(=S)N[C@H]2CO[C@H]3[C@@H]2OC[C@H]3OC(=O)Nc2cccc3ccccc23)cc1	-3.3%
CCn1ncc(CN2C[C@@H](CO)[C@H](c3ccncc3)C2)c1C	1.0%
Cc1cnc(C2CCC2)n1CC1CCN(C(=O)CCc2ccccc2)CC1	4.1%
O=C(c1ccoc1)N1CCC(Oc2cccnc2)C1 (configuration not stated)	-4.1%
C[S+](=O)([O-])N1CCC(Cn2ccc3c(N4CCOCC4)nc(-c4ccc(CO)cc4)cc32)CC1	-0.8%
COCCn1c(C)nnc1-c1cc(-c2cccc(OC)c2)ccn1	-1.1%[70.6 µM]
CC(C)CN1CC2(C1)C(=O)N(CCCN1CCCC1=O)C(=O)[C@@H]1C[C@@H](O)CN12	1.2%[70.6 µM]
O=c1[nH]nc2n1CCN(C1CCOCC1)CC2	4.7%
Cn1c(=O)c2c(ncn2CC(=O)N2CCCC(Cc3nc(C4CCOCC4)no3)C2)n(C)c1=O (configuration not stated)	1.2%
CC(C)CC(=O)N1CCC(C(=O)N2CCCCCCNC(=O)CC2)CC1	-1.1%

(list continues)
SMILES	hNpr1 antagonist
Cc1nc2c(c(-c3ccc(O)cc3)n1)CN(Cc1cccnc1)CCC2	-4.6%
CCN1C(=O)CN(C(=O)C2CCC2)CC12CCOCC2	-3.1%
Cc1ccc(C(=O)NCC(=O)N2CCCCCCNC(=O)CC2c2ccccc2)cn1 (configuration not stated)	7.8%
Cc1ccc(NC(=O)Cn2c(-c3cnccn3)nc(C)c(CCO)c2=O)cc1C	-16.0%
COCC1CN(C2CCC2)CC12CCN(C(=O)Cc1ccccc1F)CC2 (configuration not stated)	-14.7%
COc1cc(OC)cc(OCC2CN(Cc3cccc(C(F)(F)F)c3)C(=O)c3c(ccnc3-c3ccc(OCC(=O)O)cc3)O2)c1 (configuration not stated)	1.9%
CN(C)[C@H]1CCCCN(C(=O)c2coc(CN3CCOCC3)c2)C1	-13.7%
O=C(N[C@@H]1CN(Cc2ccc(Cl)c(F)c2)C[C@H]1CO)C1CCC1	3.3%
CCCCN1C(=O)CC[C@H]2CN(C(=O)C3CCC(OC)CC3)CC[C@H]21 (some centres not stated)	-3.0%
O=C(Cc1cccc(Cl)c1)N1CCCN(c2nc3ncccc3o2)CC1	-2.6%

Exported with the structure last: two of the compounds above
| hNpr1 antagonist | Molecule |
| --- | --- |
| 5.5% | c1cncc(-c2ccnc3nc(CCC4CCCC4)nn23)c1 |
| 10.6% | O=C(NC1CCN(c2nc3ncccc3o2)CC1)c1ccc(Cl)nc1 |

(cont.)
SMILES	hNpr1 antagonist
O=C(NC(C(=O)N1CCCC1)C1CCN(C(=O)c2cccc(F)c2)CC1)c1ccccc1 (configuration not stated)	0.2%
O=C(NCCc1ccccc1)N1CCC(N2C(=O)C3(CCCCC3)C2c2ccncc2)CC1 (configuration not stated)	8.7%
O=C(NCC1CC1)c1nc2c(o1)CCN(Cc1ccc3[nH]ccc3c1)CC2	1.7%[70.6 µM]
O=C1[C@H]2CN(Cc3ccccc3F)C[C@H]2C(=O)N1Cc1ccc2c(c1)OCO2	-13.3%
Cc1cn2nnc(C(=O)N3CCC(C(=O)Nc4ccc(C(C)C)cc4)CC3)c2c(=O)[nH]1	0.0%
c1ccc([C@@H]2CNC[C@H]2COc2cccnc2)nc1	-0.7%
O=C(Nc1cccs1)N1CCNc2cnc(Nc3cccc(C(F)(F)F)c3)nc2C1	-5.2%[70.6 µM]
CCCCCNC(=O)CC(c1cccc(OC)c1OC)c1c[nH]c2ccccc12 (configuration not stated)	-16.8%
CN1[C@@H](CCC(=O)N2CCN(c3ccccc3)CC2)CNC(=O)[C@@H]2[C@H]1CCN2CC(C)(C)C	0.9%
CC(C)c1ccc(C(=O)N2CCc3[nH]nc(C(=O)NCCCc4ccccc4)c3C2)cc1	0.0%
CNC(=O)N1CCC(C2CCN(C(=O)C3CCCCCC3)C2)CC1 (configuration not stated)	-2.4%
COCC(=O)N1CCCC(c2nc(C3CCOCC3)no2)C1 (configuration not stated)	-1.8%
Cn1c(CCNC(=O)c2ccccc2C2CCNC2)nc2ccccc21 (configuration not stated)	10.6%
O=C([C@H]1C[C@H](Oc2ccccc2)CN1C(=O)c1ccoc1)N1CCOCC1	0.8%
COc1ccc(-c2nc(CN3CCS(=O)(=O)CC3)c(C)o2)c(OC)c1C	-3.7%
COc1ccccc1Nc1ncc2c(n1)CN(C(=O)c1ccc(Oc3ccccc3)cc1)CCN2	-3.7%
COc1cccc(CC(=O)N2CCCCCNC(=O)[C@@H]3CCC[C@@H]32)c1	-2.3%
COC1C(=O)N(C2CCN(S(=O)(=O)C(C)C)CC2)C12CCOCC2 (configuration not stated)	1.5%
O=C(NCCC1CCN(C(=O)Nc2cccc(F)c2)CC1)C1CCC1	2.3%
COc1ccc(NC(=O)C2CCCCC(=O)N2)cc1F (configuration not stated)	6.2%
Cc1cncc(C(=O)N2CCC3(CC2)CN(C2CCC2)CC3CO)c1 (configuration not stated)	-13.0%
O=C1NN=C(c2ccccn2)C12CCN([S+](=O)([O-])c1cccc(C(F)(F)F)c1)CC2	-16.7%
COc1ccc(SCCNC(=O)C2NCCc3[nH]cnc32)cc1 (configuration not stated)	4.9%
O=C(NCc1cc2n(n1)CCCNC2)C1Cc2ccccc2S(=O)(=O)N1 (configuration not stated)	0.6%
O=C(c1ccc(CN2C(=O)NC3(CCS(=O)(=O)CC3)C2=O)cc1)N1CCCCCC1	0.0%
O=C(NC1CCN(c2cc(-c3ccccc3)[nH]n2)C1)c1cccs1 (configuration not stated)	-13.9%
CC(C)N1CCN(C2CCOC3(CCN(S(=O)(=O)c4ccccc4)CC3)C2)CC1 (configuration not stated)	3.7%
CC(C)c1noc(CC2CCN(C(=O)c3ccc(F)cc3)CC2)n1	?
N#Cc1cccc(CN2CC[C@H](c3nnc(-c4ccco4)o3)C2)c1	2.8%[70.6 µM]
CC1=C[C@@H](CNC(=O)COCC(=O)O)[C@H](C(C)C)C[C@H]1Cc1nc2c(C)cccc2[nH]1	-5.2%[70.6 µM]
